gsp antag – qHTS for Antagonists of gsp, the Etiologic Mutation Responsible for Fibrous Dysplasia/McCune-Albright Syndrome: qHTS. actives 0.4% (n = 340,000). gsp-mutant cells, cAMP HTRF, 30 min; control for the full effect not named in the record. Potency, µM (titrated, usually from 76.9 µM), for the others: top-dose activity change, negative = inhibition, most hits filed as inhibitors; active = falling curve of any shape with a large fitted effect; inconclusive = falling curve, mostly with a smaller effect; inactive = flat or rising curve; cell line not stated here;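 further: intracellular cAMP measured with PDE inhibitor Ro 20-1724 present during compound exposure; potency means the concentration at half of the fitted maximal effect; on the % scale 0 is the no-effect control and ±100 the full control effect; nearly all actives have a fitted effect of over 65% in size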
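G418-selected cells were plated in DMEM/10% FBS for 16-24 h at 37C, then treated with compounds plus the PDE inhibitor […] (300 uM solution added) for 30 min at 37C. Intracellular cAMP was measured by HTRF after 30 min lysis at room temperature.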
TRPML1 blocker – qHTS for Inhibitors of the Human Mucolipin Transient Receptor Potential 1 (TRPML1) | Mucolipin-1 (Homo sapiens), Q9GZU1 | TRPML1-inducible cells, Ca2+ dye fluorescence, FDSS; hits give low values; inhibition of EC80 agonist-evoked calcium signal | activity change, negative = inhibition, % (concentration not given with the values) | actives 0.02% (n = 390,000); in the data active means activity change below about -50%; inconclusive means about -30% to -50%; inactive means above about -30%;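 further: stimulus is agonist 54-4 at its EC80 concentration; on the % scale 0 is the no-effect control and ±100 the full control effect; compound concentration not given in the record; the text of the record puts the active cut at -80%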
Target sequence (Q9GZU1 whole entry, looked up): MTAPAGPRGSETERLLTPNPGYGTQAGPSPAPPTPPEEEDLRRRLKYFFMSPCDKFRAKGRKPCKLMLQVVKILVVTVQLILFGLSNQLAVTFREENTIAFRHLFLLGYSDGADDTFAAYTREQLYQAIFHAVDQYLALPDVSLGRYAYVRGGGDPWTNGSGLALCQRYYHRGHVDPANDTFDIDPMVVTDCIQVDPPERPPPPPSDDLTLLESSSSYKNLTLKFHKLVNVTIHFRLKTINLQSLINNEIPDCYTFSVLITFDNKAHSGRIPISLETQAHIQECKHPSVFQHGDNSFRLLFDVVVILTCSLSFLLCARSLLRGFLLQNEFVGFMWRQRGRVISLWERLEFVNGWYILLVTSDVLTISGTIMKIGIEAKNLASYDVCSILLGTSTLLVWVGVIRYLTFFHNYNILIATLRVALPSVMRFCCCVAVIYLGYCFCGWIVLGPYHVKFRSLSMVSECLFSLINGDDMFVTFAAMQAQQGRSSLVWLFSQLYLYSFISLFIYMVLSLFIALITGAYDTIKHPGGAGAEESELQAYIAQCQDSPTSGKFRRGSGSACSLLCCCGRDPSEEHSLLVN
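TRPML1-DL cells, Tet-induced overnight (~16 h, 37 °C) at 1,500 cells/well, were loaded with Ca8 no-wash dye plus quencher for 45-90 min at room temperature. Compounds were pinned during FDSS kinetic reading; agonist 54-4 at EC80 (4 uM final) then added.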
Menin MLL FP FL – qHTS Assay for Inhibitors Targeting the Menin-MLL Interaction in MLL Related Leukemias: Competition With Fluorescein Labeled MLL-derived Peptide; Fluorescence polarization, fluorescein-MLL peptide displacement from menin; FP activity change, % at 61.4 µM; 290,000 tested, under 10 active; inconclusive = falling polarisation curve, or a change in total fluorescence; inactive = total fluorescence flat and polarisation flat or rising; no compound was filed as active; the % refers to the polarisation; negative = inhibition;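 further: % of control where 0% means no effect; inhibitors lower the polarisation; unlabelled MLL peptide was the positive control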
TRPML1 agonist – qHTS for Agonists of the Human Mucolipin Transient Receptor Potential 1 (TRPML1) | TRPML1-expressing cells, Ca2+ dye fluorescence, FDSS; host cell line not named in the record; reference of the full effect not given here | activation, % (no concentration beside the values) | actives 0.12% (n = 410,000) | AID 624414, 2012; in the data active = activation above about 50%; inconclusive = about 30% to 50%; inactive = below about 30%; further: 0% is about no effect; the text of the record puts the active cut at 80%
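In this qHTS format, compounds were pin-transferred onto Ca8-dye-loaded TRPML1-DL cells induced with Tet overnight, and intracellular Ca2+ fluorescence was recorded kinetically for 110 s after a 10 s baseline. A subsequent 4uM final 54-4 (EC80) addition followed by a second 110 s read served as the antagonist phase.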
gsp agonist – qHTS for Agonist of gsp, the Etiologic Mutation Responsible for Fibrous Dysplasia/McCune-Albright Syndrome: qHTS; gsp mutant cells, cAMP HTRF, 30 min; control for the full effect not named in the record; Potency, µM (titrated, usually from 76.9 µM), without a hit: at the top dose activation (cAMP increase), actives largely listed as activators; actives 0.13% (n = 340,000); active = well fitted activation curve with a large enough effect; inconclusive = small, poorly fitted or top-dose-only effect, or another doubt; inactive = no such curve, though single readings can be large or run the other way; cell line not stated here;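 further: phosphodiesterase inhibitor Ro 20-1724 added with compounds to block cAMP breakdown; potency means the concentration at half of the fitted maximal effect; nearly all actives have a fitted effect of over 60% in size; about a fifth of the inactives were tested at one dose only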
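Cells in DMEM/10% FBS with G418 were pretreated with compounds in DMSO plus […] (300 uM stock) for 30 min at 37C. cAMP was measured by HTRF (cAMP-d2 plus anti-cAMP antibody-K) after 30 min at room temperature.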
ClpP mod – qHTS Assay for Activators of ClpP; Potency, µM (top dose mostly 57.5 µM), inactives show top-dose activity change, negative = active; AID 651965, 2013; purified B. subtilis ClpP, FRET peptide cleavage, 20 min; ATP-dependent Clp protease proteolytic subunit (Bacillus subtilis (strain 168)), P80244; actives 1.9% (n = 340,000); active = well fitted falling curve with a large enough effect; inconclusive = small, poorly fitted or top-dose-only effect; inactive = no such curve, though single readings can be large or run the other way; further: potency means the concentration at half of the fitted maximal effect; the source files actives as falling curves though it sought activators and does not explain the sign; nearly all actives have a fitted effect of over 65% in size; many hits overshoot -100%
Target sequence (P80244 whole entry, looked up): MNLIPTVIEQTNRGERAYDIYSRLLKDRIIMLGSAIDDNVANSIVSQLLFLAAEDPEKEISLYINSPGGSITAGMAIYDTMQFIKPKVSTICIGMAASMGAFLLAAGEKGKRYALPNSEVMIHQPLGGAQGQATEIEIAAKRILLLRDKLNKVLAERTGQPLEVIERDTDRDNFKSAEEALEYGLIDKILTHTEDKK
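Purified B. subtilis ClpP, 10 microg/mL final in Tris/HCl pH8 with KCl, BSA, glycerol and Tween-20, cleaved an Abz/nitrotyrosine-quenched decapeptide. Fluorescence (ex 320, em 430) was read at 0 and 20 min at room temperature. Delta was normalized to 5.8 microM ADEP and DMSO/no-enzyme controls.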
* marks the source's active call; other numbers are inactive results; u = inconclusive; x = not tested or not shown; & = joins results of further samples; [ ] = remark or other dose.

SMILES	gsp antag	TRPML1 blocker	Menin MLL FP FL	TRPML1 agonist	gsp agonist	ClpP mod
CC(OC(=O)CCC(=O)c1ccc(F)cc1)C(=O)NC1CCCCC1C (stereo not drawn)	4%	15	x	0.1	-18%	-0.4%
CCOC(=O)C1CC(=O)c2cc(OC)c(OC)cc2C1 (stereo not drawn)	-15%	-12	1.9	0.8	1%	4.1%
O=C(Nc1ccccc1C(=O)NCCc1ccc(O)cc1)c1ccco1	-24%	-14	-1.4	0.2	u	-0.2%
O=C(NCc1cccs1)C(=O)c1cn(CC(=O)N2CCOCC2)c2ccccc12	-8%	-21	0.2	-0.4	12%[15.4 µM]	x
O=[N+]([O-])c1cc([N+](=O)[O-])c(N2CCCCCC2)cc1NCCO	-17%	10	-0.5	-0.2	-7%	-3.0%
COc1ncnc2c1ncn2CCCN1CCN(Cc2ccc(C)cc2)CC1	x	-5	x	-0.2	u	-0.7%
Clc1ccc(CO/N=C2\CCCc3nonc32)c(Cl)c1	-27%	-8	2.1	0.7	0%	-1.4%
C=CCNC(=O)c1onc(CSc2cccc(OC)c2)c1C(=O)NCC=C	-8%	9	0.8	1.6	x	0.0%
N#Cc1c2n(c3c(=O)n(CC(=O)c4ccc(Br)cc4)cnc13)CCCC2	23%	15	0.7	0.8	12%	u
Cc1ccc(N=C2NC(=O)CC(C(=O)Nc3cc(C(F)(F)F)ccc3Cl)S2)cc1 (stereo not drawn)	x	9	x	-0.4	x	1.8%
COc1ccc(N2CCN(S(=O)(=O)c3cccc4nsnc34)CC2)cc1	4%	1	0.4	-0.4	0%	0.6%
O=C(c1ccccc1)N(Cc1cccc(Br)c1)C1CCS(=O)(=O)C1 (stereo not drawn)	-1%	0	-0.7	1.0	-78%[inhibitor]	-0.6%
COc1cc(-c2nc3sccn3c2Nc2c(C)cccc2C)ccc1O	x	-6	x	1.4	x	-2.4%
COc1cccc(OC)c1C(=O)Nc1cccc(C(C)=O)c1	-10%	-8	1.9	0.1	25%	-0.9%
O=C(CCCCCNC(=O)c1ccccc1)N/N=C/c1ccc(O)cc1O	-7%	-22	0.5	-0.1	3%[15.4 µM]	0.1%
NC(=O)c1c(NC(=O)C(=O)N2CCOCC2)sc2c1CCC2	-3%	0	1.3	-0.6	27%	0.2%
COc1ccc(Cl)cc1NC(=O)c1noc2c1CCCC2	2%	x	2.6	x	25%	107%
O=C(NCc1nnc(SCC(=O)N2CCCCC2)o1)c1ccc(F)cc1	9%	-4	x	-0.1	4%[15.4 µM]	0.7%
Cc1ccc(C(=O)CSc2nc(C)cc(SCc3nnc(-c4ccccc4)o3)n2)cc1	-2%	-3	0.7	0.2	0%	3.8%
O=C(NCCCn1ccnc1)C(=O)NCC1OCCCN1S(=O)(=O)c1ccc(Cl)cc1 (stereo not drawn)	7%	43	4.9	-0.1	-4%	-1.0%
COc1ccc(OC)c(NC(=O)c2cc3c(=O)n4cccc(C)c4nc3n2C)c1	x	-8	x	-0.4	x	-2.8%
COc1ccc(-n2c(N)c(C(=O)NCc3ccco3)c3nc4ccccc4nc32)cc1	2%	7	14	-0.4	2%	32µM*
COc1ccc(Cl)cc1C(=O)NCCN1CCOCC1	10%	-9	0.6	2.5	-35%[inhibitor]	-0.6%
COC(=O)c1ccccc1NC(=O)CN1CCN(Cc2ccccc2)CC1	3%	54	2.2	1.7	-25%	-1.6%
Cc1ccc(NC(=O)c2oc3ccc(S(=O)(=O)N4CCCCCC4)cc3c2C)c(C)c1	x	28	x	-0.5	x	4.9%

A few values from above:
Result for Cc1ccc(NC(=O)c2oc3ccc(S(=O)(=O)N4CCCCCC4)cc3c2C)c(C)c1 under TRPML1 agonist: -0.5
Result for COc1ccc(Cl)cc1NC(=O)c1noc2c1CCCC2 under Menin MLL FP FL: 2.6

Remaining list, next part.
SMILES	gsp antag	TRPML1 blocker	Menin MLL FP FL	TRPML1 agonist	gsp agonist	ClpP mod
CN(C(=O)c1cccc(S(=O)(=O)N2CCCC2)c1)C1CCCCC1	1%	-2	x	-0.3	0%	1.2%
Cc1nn(CCC(=O)Nc2cc(F)ccc2F)c(=O)c2nn(-c3ccccc3)c(C)c12	x	-3	x	-0.9	x	-6.8%
CCCCCCCNC(=O)C1CC(=O)N(C)C(=Nc2ccc(OC)cc2)S1 (stereo not drawn)	-1%	-23	1.4	1.2	-36%[inhibitor]	-1.6%
Cc1cccc(NC(=O)C(C)Sc2ncnc3sccc23)c1 (stereo not drawn)	x	-8	x	-0.7	3%	-1.4%
CCCCCC(=O)N/N=C(\C)c1ccc(NC(=O)c2ccco2)cc1	0%	-6	-0.8	-0.8	15%	-4.1%
CC(=O)Nc1nc(COc2ccc3ccccc3c2)cs1	u	16	3.8	-0.1	2%	1.0%
CCOC(=O)Cc1cc(=O)c2c(=O)n(-c3ccccc3)[nH]c2[nH]1	3%	-21	-1.0	-1.0	u	3.3%
CSc1nnc(CCCCCCCCc2nnc(SC)o2)o1	-12%	1	-0.7	1.2	-4%	1.4%
CCOC(=O)C1CCCN(C(=O)c2csc(-c3ccc4c(c3)CCO4)n2)C1 (stereo not drawn)	17%	0	5.4	-0.1	5%[15.4 µM]	-2.5%
OCC1(CCc2ccccc2)CCN(Cc2cccn2-c2cccnc2)CC1	-3%	-11	u	-0.5	-5%[15.4 µM]	x
COCCCNC(=O)CN1CCN(Cc2ccccc2Cl)C1=O	-5%	9	2.7	-0.6	5%	-0.7%
O=C(CCc1ccccc1)NCC(=O)N/N=C/c1ccc2c(c1)OCO2	-9%	32	-1.1	1.1	8%	-18%
CCC(C)N(C(=O)COC(=O)CNC(=O)c1ccccc1F)C1CCS(=O)(=O)C1 (stereo not drawn)	5%	-10	1.1	0.6	5%	0.8%
CN(CC(=O)Nc1ccccc1Br)C(=O)CN(C)C1CCCCC1	16%	30	x	-0.4	-9%	-0.3%
Cc1nnc(SCc2cccc(CSc3nnc(C)s3)c2)s1	-8%	-10	2.9	-0.1	0%	-1.0%
CCOC(=O)c1cc(S(=O)(=O)N2CCN(c3cccc(C)c3C)CC2)[nH]n1	x	5	x	1.8	x	0.3%
COc1cc(-n2c(=O)c3ccccc3n(Cc3cccnc3)c2=O)cc(OC)c1OC	6%	-2	x	0.0	-27%	0.2%
COC(=O)c1ccc(C(=O)OC)nc1	8%	0	-2.6	3.8	18%	4.8%
CN1C(=O)C(CC(=O)Nc2ccc3c(c2)Cc2ccccc2-3)N(C)C1=O (stereo not drawn)	11%	-17	4.4	-0.2	16%	-1.4%
COc1ccc(CCNC(=O)c2cc(=O)c3ccc(C)cc3o2)cc1OC	-13%	3&-9	1.9	-0.8&-1.2	20%	0.0%
Clc1ccccc1C1=Nn2c(nnc2-c2ccncc2)SC1	-3%	-3	4.6	-1.0	-2%	-2.8%
CCOCCCNC(=S)N1CCCN(c2nc3cc(C)c(C)cc3cc2C#N)CC1	-21%	-8	-3.1	0.0	6%	-18%
CCc1ccccc1N1C(=O)C2CC=CCC2C1=O (stereo not drawn)	3%	-3	-8.9	-0.6	u	1.3%
Cn1cnc(S(=O)(=O)Nc2ccc(OC(F)F)cc2)c1	-33%	1	4.5	-0.9	10%[15.4 µM]	1.5%
O=C(CSc1ncn[nH]1)Nc1ccc2c(c1)CCC2	-2%	19	9.6	0.1	21%	-2.5%

2 records drawn at random from those above:
SMILES	gsp antag	TRPML1 blocker	Menin MLL FP FL	TRPML1 agonist	gsp agonist	ClpP mod
Cc1nn(CCC(=O)Nc2cc(F)ccc2F)c(=O)c2nn(-c3ccccc3)c(C)c12	x	-3	x	-0.9	x	-6.8%
Cc1nnc(SCc2cccc(CSc3nnc(C)s3)c2)s1	-8%	-10	2.9	-0.1	0%	-1.0%

Molecules from the list above containing a thiophene ring, fused or not, in the order listed:
SMILES	gsp antag	TRPML1 blocker	Menin MLL FP FL	TRPML1 agonist	gsp agonist	ClpP mod
O=C(NCc1cccs1)C(=O)c1cn(CC(=O)N2CCOCC2)c2ccccc12	-8%	-21	0.2	-0.4	12%[15.4 µM]	x
NC(=O)c1c(NC(=O)C(=O)N2CCOCC2)sc2c1CCC2	-3%	0	1.3	-0.6	27%	0.2%
Cc1cccc(NC(=O)C(C)Sc2ncnc3sccc23)c1 (stereo not drawn)	x	-8	x	-0.7	3%	-1.4%

Next structures follow.
SMILES	gsp antag	TRPML1 blocker	Menin MLL FP FL	TRPML1 agonist	gsp agonist	ClpP mod
COc1ccc(CNC(=O)CN(C)S(=O)(=O)c2ccc3c(c2)n(C)c(=O)c(=O)n3C)cc1	20%	23	x	-0.9	u	-14%
CC1C(=O)N2CCCc3cc(NC(=O)C(=O)NCc4ccccn4)cc1c32 (stereo not drawn)	3%	5	x	-0.2	9%	-9.7%
Cc1nc([N+](=O)[O-])cn1-c1nc2ccccn2c1[N+](=O)[O-]	9%	9	5.0	1.1	-35%	1.1%
Cc1sc2nc(SCc3ccc(C(=O)O)cc3)n(Cc3ccco3)c(=O)c2c1C	25µM*	44	6.4	2.7	-9%[15.4 µM]	x
Cn1c(-c2ccc3ccccc3n2)[n+](C)c2ccccc21	-12%	12	4.7	0.0	-16%[15.4 µM]	x
CCOC(=O)Nc1ccc2c(c1)N(C(=O)CN(C)C)c1ccccc1CC2	4%	-13	-1.3	-0.3	x	0.8%
O=C(CSc1ccc(Cl)cc1)N/N=C/c1ccc([N+](=O)[O-])o1	-6%	1	u	-0.7	28%	-1.4%
CCn1cc(C(=O)Nc2ccc(F)c(F)c2)cn1	-15%	-21	3.1	-0.1	-23%	-3.7%
COc1ccc(OC)c(CN2CCN(C(=O)CN3C(=O)NC4(CCCC4)C3=O)CC2)c1	9%	2	x	-0.2	-8%	-4.1%
COc1ccc(-c2nc3cc(NC(=O)Cc4ccc(Cl)cc4)ccc3o2)cc1OC	x	-25	x	0.7	x	4.8%
CCOc1cc(NC(=O)c2ccco2)c(OCC)cc1NC(=O)COc1ccccc1	-10%	5	2.1	1.2	11%	10%
COc1ccccc1OCCC(=O)OCC(=O)NC(=O)NC(C)(C)C	-2%	16	-1.1	0.6	-1%	-2.0%
O=C(NC1CCCC1)c1cc2nc(-c3ccco3)cc(C(F)(F)F)n2n1	-13%	4	2.3	-0.3	6%[15.4 µM]	x
Cc1ccc(-c2nc(CS(=O)(=O)CC(=O)NCCc3ccccc3)c(C)o2)cc1	x	22	x	-1.1	x	-7.8%
